# High-throughput results (PubChem BioAssay)
# HPGD block: blocks human HPGD enzyme activity; Potency, µM, without a hit: at the highest dose activity change, negative = inhibition, actives largely listed as inhibitors; purified HPGD, NADH fluorescence kinetic, PGE2 substrate; AID 894; 4.3% of 150,000 active; P15428; active = well fitted inhibition curve with a large enough effect (not every such curve was filed as active); inconclusive = small, poorly fitted or top-dose-only effect, or another doubt; inactive = no such curve, though single readings can be large or run the other way;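 further: top concentration of the series not given in the record; plate controls included wells without enzyme; inactives centre near -10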
# Target sequence (P15428 whole entry, looked up): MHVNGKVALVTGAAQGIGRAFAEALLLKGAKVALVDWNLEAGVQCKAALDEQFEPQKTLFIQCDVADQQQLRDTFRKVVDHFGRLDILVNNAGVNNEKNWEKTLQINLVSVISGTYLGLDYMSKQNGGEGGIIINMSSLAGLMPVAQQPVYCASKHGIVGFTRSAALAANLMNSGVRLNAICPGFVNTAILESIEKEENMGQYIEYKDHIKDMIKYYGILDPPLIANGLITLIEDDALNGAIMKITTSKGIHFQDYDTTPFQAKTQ
#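 NADH formation kinetics: reaction with 30 uM PGE2 and 1 mM NAD+ (final), 20 nM enzyme, Tris-HCl pH 8 with Tween 20, after 15 min compound preincubation at room temperature. Fluorescence change, last versus first of five reads.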
# * marks the source's active call; other numbers are inactive results; ? = inconclusive; & = joins results of further samples. On the % scale 0 is the no-effect control and ±100 the full control effect; potency means the concentration at half of the fitted maximal effect. An excerpt (hit frequency here may not be typical).
cpd	compound	HPGD block
1	CCc1ccc(N2CC(C(=O)Nc3nccs3)CC2=O)cc1 (stereo not given)	-6%
2	O=C1c2ccccc2C(=O)C1c1ccnc2ccccc12	2%
3	Cc1c(C(=O)O)cccc1-n1c(C)cc(/C=N/NC(=O)c2cc3ccccc3o2)c1C	?
4	Cn1cnnc1Sc1cc(N2CCN(S(=O)(=O)c3ccccc3)CC2)ccc1[N+](=O)[O-]	-13%
5	Cn1c(SCC(=O)c2ccc3c(c2)OCO3)nnc1C1COc2ccccc2O1 (stereo not given)	-23%
6	Cc1cc(C)cc(OCC(O)CN2C(=O)NC(C)(C)C2=O)c1 (stereo not given)	-5%
7	O=C1CC(N2CCN(C/C=C/c3ccccc3)CC2)C(=O)N1CCc1ccccc1 (stereo not given)	-12%
8	COC/C=C/C1=CC2=CC(=O)C(C)(OC(=O)CCc3ccccc3)C(=O)C2=CO1 (stereo not given)	-5%
9	c1ccc(Nc2nc3ccccc3n3cnnc23)cc1	?
10	Cc1cc(NC(=O)CSc2ncnc3ccccc23)no1	-12%
11	CSc1nnnn1-c1cccc(O)c1	-12%
12	Cc1ccccc1CS(=O)(=O)Cc1ccc(C(=O)NCCCN2CCCC2=O)o1	8%
13	c1ccc(-n2cnc3cc(NCc4ccncc4)ccc32)cc1	?
14	CC(=O)c1cc(-c2ccccc2)n(CC(=O)N2CCCCC2)c1C	-4%
15	CC(=O)N1CCCc2cc(S(=O)(=O)N(CC(C)C)CC(C)C)ccc21	-13%
16	COc1ccc(C2=C(Nc3ccccc3)c3ccccc3C2=O)cc1	-7%
17	O=C(NCCN1CCCCC1)c1ccc(-n2c(=O)c(=O)[nH]c3ccccc32)cc1	-8%
18	CC(=O)OC1CCC23CC1(C)CCC2C(C)(C)CC3OC(C)=O (stereo not given)	-3%
19	N#Cc1c(NC(=O)CCCC(=O)O)sc2c1CCCCC2	-22%
20	CCOC(=O)N1CCN(C2CC(=O)N(c3ccccc3)C2=O)CC1 (stereo not given)	-8%

# Reprinted from the part before: 5 compounds, followed by the next part.
cpd	compound	HPGD block
16	COc1ccc(C2=C(Nc3ccccc3)c3ccccc3C2=O)cc1	-7%
17	O=C(NCCN1CCCCC1)c1ccc(-n2c(=O)c(=O)[nH]c3ccccc32)cc1	-8%
18	CC(=O)OC1CCC23CC1(C)CCC2C(C)(C)CC3OC(C)=O (stereo not given)	-3%
19	N#Cc1c(NC(=O)CCCC(=O)O)sc2c1CCCCC2	-22%
20	CCOC(=O)N1CCN(C2CC(=O)N(c3ccccc3)C2=O)CC1 (stereo not given)	-8%
21	CCOC(=O)N1CCC(NC(=O)CCc2c(C)nc3ncnn3c2C)CC1	-1%
22	Cc1cc(C)n(CCCNC(=O)c2ccc3c(c2)NC(=O)CS3)n1	-14%
23	Cc1ccc(NC(=O)C(CC(C)C)NC(=O)C2CCC(C)CC2)nc1 (stereo not given)	0%
24	COc1ccc(-c2nnc(-c3ccc(OCC(C)C)cc3)o2)cc1	?
25	Cc1cccc(C)c1NC(=O)CCCSc1nnc(-c2ccco2)o1	-6%
26	O=C(NC(=S)Nc1ccc2c(c1)OCCO2)c1ccccc1	-16%
27	N#C/C(=C\c1cc2ccccc2nc1N1CCOCC1)C(=O)Nc1ccc(N2CCOCC2)cc1	-21%
28	c1ccc(-n2ncc3c(N4CCCC4)ncnc32)cc1	-13%
29	COc1ccc([N+](=O)[O-])cc1NC(=O)C(C)OC(=O)c1ccccc1C(=O)c1ccc(Cl)cc1 (stereo not given)	-11%
30	COC(=O)C1CCN(c2cc(=O)n(-c3ccccc3Cl)c(=O)[nH]2)CC1	-8%
31	COc1ccc(N2C(=O)CC(n3c(CCCCO)nc4ccccc43)C2=O)cc1 (stereo not given)	-18%
32	Cc1ccc(NS(=O)(=O)c2ccc(OCC(=O)NCc3ccncc3)cc2)cc1	-6%
33	CCC1(C(=O)O)NC(c2cc(OC)ccc2O)C2C(=O)N(Cc3ccccc3)C(=O)C21 (stereo not given)	-1%
34	CCOC(=O)C1=C(C)NC(=O)NC1c1ccc(Br)s1 (stereo not given)	3%
35	S=c1[nH]nc(Cc2ccccc2)n1-c1cccc2ccccc12	16µM*
36	C=CCn1c(COc2cccc3cccnc23)nnc1SCC(=O)O	-9%
37	Cc1cc(C)nc(Nc2nc3ccccc3[nH]2)n1	-13%
38	[ClH+][Cu][ClH+].[Cu].[OH2+]c1ccc2ccccc2c1CN1CCCCC1.[OH2+]c1ccc2ccccc2c1CN1CCCCC1	-13%
39	COc1ccccc1Nc1nc(NCCO)c2ccccc2n1	-11%
40	CN(C)CCNC(=O)c1cc2cc(Br)ccc2oc1=O	?
41	CCCn1c(=O)c2ccccc2n2c(SCCOc3ccccc3F)nnc12	-5%
42	CCOC(=O)c1ccc(NS(=O)(=O)c2cc(-c3nnnn3C(C)C)ccc2OC)cc1	-22%
43	O=C(Nc1nc(N2C(=O)c3ccccc3C2=O)n(-c2ccccc2)n1)c1ccccc1	-16%
44	CC1(C)Cc2c(c(N3CCOCC3)nc3sc4c(N5CCOCC5)nnnc4c23)CS1	-7%
45	CCC(=O)N1C(C(=O)NCc2ccc(OC)cc2)CSC1c1ccc(OC)cc1 (stereo not given)	-7%
46	CCOc1ccc(-c2nnn(CC(=O)N3CCN(c4ccc(OC)cc4)CC3)n2)cc1OCC	-1%
47	Nc1nc(SCC(=O)Nc2ccccc2)[nH]c(=O)c1-c1ccccc1	1%
48	Nc1cccc(-c2cn3cc(C(F)(F)F)cc(Cl)c3n2)c1	0%
49	CCOc1ccccc1N/C(=C(/C(Cl)=C(Cl)Cl)[N+](=O)[O-])n1cncn1	-16%
50	CCCOc1ccc2c3c(c(=O)oc2c1OCCC)CCC3	-23%
51	O=C1CC(Cc2ccccc2)C(=O)N1Cc1ccco1 (stereo not given)	-14%
52	CCN(CC)S(=O)(=O)c1cc(C(=O)Nc2cccnc2)ccc1Cl	-7%
53	COC(=O)c1sc(S(=O)(=O)N2CCC(C)CC2)c(C(=O)OC)c1C	-19%
54	COc1ccc(C(C(=O)NC2CCCCC2)N2CCC3(CC2)OCCO3)cc1 (stereo not given)	-5%
55	COc1ccc(S(=O)(=O)Nc2cccc(/C=C/C(=O)O)c2)cc1	-15%
56	COC(=O)Nc1ccc(S(=O)(=O)N2CCC(Cc3ccccc3)CC2)cc1	0%
57	COc1ccc2nc(SCC(=O)N3CCN(c4ccc(F)cc4)CC3)c(C#N)cc2c1	-6%
58	O=C(OC[C@@H]1O[C@@](O)(COC(=O)c2cccnc2)[C@H](OC(=O)c2cccnc2)[C@H]1OC(=O)c1cccnc1)c1cccnc1	-10%
59	COc1cccc(-c2nc(-c3ccccn3)no2)c1	-13%
60	O=C(O)c1cccc(N2C(=O)c3cccnc3C2=O)c1	-2%

# Following part.
cpd	Structure	HPGD block
61	COc1ccc(CCNC(=O)CSc2nnc(Cc3csc(N)n3)n2C)cc1OC	4%
62	COc1ccc(CCNC2CC(=O)N(CCc3ccc(OC)c(OC)c3)C2=O)cc1OC (stereo not given)	-11%
63	COc1ccc(N2C(=O)CC(Sc3nc(C)c4c(n3)CCCC4)C2=O)cc1 (stereo not given)	-9%
64	CC1=CC2C(C)(C)CC(=O)C[C@]2(C)CC1COc1ccc2c(c1)CC(=O)C=C2 (stereo not given in full)	?
65	CCOC(=O)CCCSc1nc(-c2ccc3c(c2)OCO3)cc(C(F)(F)F)c1C#N	?
66	COC(=O)C1=C(C)NC(C)=C(C(=O)OC)C1c1ccccn1	-15%
67	O=C(O)Cn1nc2ccccc2n1	-3%
68	CCC(C)(C)n1nnnc1CN1CCC(NC(=O)c2ccccc2C)CC1	-11%
69	O=C(NCCCn1ccnc1)c1cc2cc([N+](=O)[O-])ccc2oc1=O	-13%
70	O=c1ccc(Cc2ccccn2)n[nH]1	-10%
71	O=S(=O)(c1ccc(S(=O)(=O)N(Cc2cccs2)CC2CCCO2)cc1)N1CCCCC1 (stereo not given)	-4%
72	Cc1ccc(Cl)cc1N1CCN(S(=O)(=O)c2ccc3c(c2)oc(=O)n3C)CC1	-6%

# Screen by screen, from the results shown:
# HPGD block, entries 68–72, in order: -11%, -13%, -10%, -4%, -6%

# Further results follow:
cpd	Structure	HPGD block
73	COc1ccc(-n2cc(-c3ccccc3)c3c(=O)[nH]cnc32)cc1	-9%
74	Cn1c(N)c(C(=O)COC(=O)c2cc(C(F)(F)F)nc3ccccc23)c(=O)n(C)c1=O	-2%&-12%
75	N#CC1=C2N=C(N)c3ccccc3N2C2=C(C(=O)CCC2)C1c1ccc(Cl)cc1 (stereo not given)	-4%
76	Cc1noc(C)c1COc1cccc(C(=O)NCc2ccccc2Cl)c1	16µM*
77	CC1C(=NO)C(C)C(c2ccc(N(C)C)cc2)NC1c1ccc(N(C)C)cc1 (stereo not given)	-16%
78	CCOC(=O)CCCNC(=O)CCNC(=O)c1ccc(OCC)cc1	-4%
79	CCCCC1=CC2=C(c3ccco3)C(=O)C(C)(OC(=O)c3ccc(OC)cc3)C(=O)C2=CN1CCc1c[nH]c2ccccc12 (stereo not given)	-5%
80	O=C(C1COc2ccccc2O1)N1CCN(Cc2ccc3c(c2)OCO3)CC1 (stereo not given)	-6%
81	O=C(COc1ccccc1)NCC(=O)Nc1cccc2ccccc12	-19%
82	CC(=O)N(Cc1cc2ccc(C)c(C)c2n2nnnc12)C1CCCC1	-11%
83	O=C(O)C1CC(=O)N(c2ccc(F)cc2)C1 (stereo not given)	-6%
84	O=C(COC(=O)Cc1ccsc1)Nc1ccc(Cl)c(S(=O)(=O)N2CCOCC2)c1	-6%
85	COc1ccc2nc(NC(=O)C3CCCN3S(=O)(=O)c3ccc(C)cc3)sc2c1 (stereo not given)	-15%
86	CC(=O)N1CCN(S(=O)(=O)c2cccc(C(=O)NC3CCCc4ccccc43)c2)CC1 (stereo not given)	-6%
87	N#Cc1c(N)nc2c(c1-c1cccnc1)CCCCC2	-21%
88	O=C1NC(=Nc2ccc(Cl)cc2)SC1Cc1cc(Cl)ccc1Cl (stereo not given)	-8%
89	CCC(C)NC(=O)CN(C)S(=O)(=O)c1ccc2c(c1)c(=O)n(C)c(=O)n2C (stereo not given)	-8%
90	CCOC(=O)C(=O)Nc1cc([N+](=O)[O-])ccc1C	-4%
91	CCCc1oc2c(c(=O)c1CC)C(=O)CC(C)(C)C2	-7%
92	COC(=O)c1cnc(SC)nc1C	-1%
93	FC(F)(F)C1CC(c2cccs2)Nc2ncnn21 (stereo not given)	-10%
94	Cc1ccc(C)c2c1[nH]c1ccccc12	-11%
95	O=C(Cn1cccc1C(=O)c1ccccc1)NCc1ccco1	-12%
96	COCCOC(=O)C(C#N)c1nc2ccccc2nc1N1CCCC1 (stereo not given)	-12%
97	CCC(C(=O)NC1CCCC1)N(Cc1ccco1)C(=O)Cn1nnc(-c2ccc(C)cc2)n1 (stereo not given)	-26%
98	Cc1ccccc1Cn1cc(NC(=O)c2cc(-c3cccs3)on2)cn1	?
99	CS(=O)(=O)N(CC(N)=O)c1ccc2c(c1)OCO2	5%
100	Cc1cc2cc(CCNC(=O)c3ccc(Br)o3)c(=O)[nH]c2cc1C	?
101	Cc1ccc(COc2cccc3c2CCN(Cc2ccc(F)cc2)C3=O)cc1	-6%
102	O=C(CSc1ncn(-c2ccccc2)n1)Nc1nc2ccccc2s1	22µM*
103	COc1ccc(C(=O)CSc2nnc(CN3CCCCC3)n2-c2ccc(Cl)cc2)cc1OC	-2%
104	Cc1ccc(-c2cc(C(F)(F)F)n3nc(C(=O)NCCCn4ccnc4)cc3n2)cc1C	?
105	c1ccc(-n2nnnc2-n2ccnc2)cc1	-4%
106	O=C(c1cc(C(F)(F)F)cc(C(F)(F)F)c1)N1CCC[C@@]2(CCN(c3ccccn3)C2)C1	-13%
107	Nc1nc(SCc2ccc([N+](=O)[O-])cc2)c2ncn(C3OC(CO)C(O)C3O)c2n1 (stereo not given)	-23%
108	COC(=O)c1cc2ccsc2n1CC(=O)N1CCCc2ccccc21	?

# A section of the results above, as a working copy:
cpd	Structure	HPGD block
107	Nc1nc(SCc2ccc([N+](=O)[O-])cc2)c2ncn(C3OC(CO)C(O)C3O)c2n1 (stereo not given)	-23%
108	COC(=O)c1cc2ccsc2n1CC(=O)N1CCCc2ccccc21	?

# The listing picks up, repeating the 3 entries before the break.
cpd	Structure	HPGD block
106	O=C(c1cc(C(F)(F)F)cc(C(F)(F)F)c1)N1CCC[C@@]2(CCN(c3ccccn3)C2)C1	-13%
107	Nc1nc(SCc2ccc([N+](=O)[O-])cc2)c2ncn(C3OC(CO)C(O)C3O)c2n1 (stereo not given)	-23%
108	COC(=O)c1cc2ccsc2n1CC(=O)N1CCCc2ccccc21	?
109	O=C(OC1Cc2c(O)cc(O)cc2OC1c1cc(O)c(O)c(O)c1-c1c(C2Oc3cc(O)cc(O)c3CC2O)cc(O)c(O)c1O)c1cc(O)c(O)c(O)c1 (stereo not given)	-29%
110	COC(=O)c1ccc2c(c1)c(I)c(-c1ccc(OC)cc1)n2C	-14%
111	CCOc1cc(/C=C(\C#N)C(N)=O)ccc1OS(=O)(=O)c1ccccc1	-24%
112	CN(CC(=O)NCc1cccnc1)S(=O)(=O)c1ccc2c(c1)c(=O)n(C)c(=O)n2C	-18%
113	CCOc1cc(CNC(=O)CN2C(=O)c3ccccc3S2(=O)=O)ccc1OC	-10%
114	S=C(NCCN1CCOCC1)Nc1cccc(Cl)c1	-8%
115	COc1ccc(/C=C2\SC(=S)N(CCC(=O)NC3=NCCS3)C2=O)cc1OC	-24%
116	c1coc(CN2CCN(C(c3cccs3)c3nnnn3C3CCCC3)CC2)c1 (stereo not given)	-3%
117	CC(=O)c1ccc(N2CCN(C(C)C(=O)NC3CCCc4ccccc43)CC2)cc1 (stereo not given)	-9%
118	CC(O)Cc1nsc(NC(=O)c2ccc(Br)o2)n1 (stereo not given)	-13%
119	O=C(CN(Cc1ccco1)C(=O)CNS(=O)(=O)c1ccccc1)NC1CCCCC1	-2%
120	CCOC(=O)c1c(NC(=O)c2cccnc2Cl)sc(C(=O)N(C)C)c1C	-14%
121	Cc1ccc(-n2nnc3c(=O)n(CC(=O)N4CCCC4)cnc32)cc1	-2%
122	CC(=O)NCC(=O)OCC(=O)c1ccc(C)cc1	-5%
